VDR inh – inhibitors of human vitamin D receptor | AID 504847 | hit rate 0.93% among 400,000 | VDR-SRC2-3 peptide fluorescence polarization, 2 h | Potency, µM, inactives show max response, negative = inhibition, most hits filed as inhibitors; active = well fitted inhibition curve with a large enough effect; inconclusive = small, poorly fitted or top-dose-only effect, or another doubt; inactive = no such curve, though single readings can be large or run the other way; note: series mostly up to about 120 µM
Target sequence (P11473 whole entry, looked up): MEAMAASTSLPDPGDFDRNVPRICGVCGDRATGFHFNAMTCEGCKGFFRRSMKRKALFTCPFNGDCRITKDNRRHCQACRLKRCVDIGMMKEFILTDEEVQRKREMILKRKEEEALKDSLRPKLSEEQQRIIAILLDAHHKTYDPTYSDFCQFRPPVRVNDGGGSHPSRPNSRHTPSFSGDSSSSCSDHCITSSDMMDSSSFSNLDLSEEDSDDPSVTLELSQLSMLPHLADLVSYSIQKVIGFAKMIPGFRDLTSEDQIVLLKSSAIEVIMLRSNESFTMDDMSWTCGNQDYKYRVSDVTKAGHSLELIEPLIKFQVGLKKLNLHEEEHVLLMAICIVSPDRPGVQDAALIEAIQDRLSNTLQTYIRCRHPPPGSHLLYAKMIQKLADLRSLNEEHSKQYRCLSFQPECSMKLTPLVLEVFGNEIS
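Two reagent solutions held at 4 deg C in the dark were dispensed, compounds pinned at 23 nl, and the mixture incubated 2 h at room temperature. Read-out: fluorescence polarization of VDR–SRC2-3 peptide binding.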
Numbers without * were called inactive; ? = inconclusive; & = joins results of further samples; [ ] = dose if it differs, or a comment. % is set by controls: 0 for no effect and ±100 for the full control effect; potency is the fitted concentration of half-maximal effect. This is a subset (hit frequency here may not be typical).

VDR inh | smiles
-3% | CN(C(=O)COC(=O)COc1ccc(N(C)S(=O)(=O)c2ccc(Cl)cc2)cc1)c1ccccc1
-24% | Cc1cccc(NS(=O)(=O)c2ccc3c(c2)NC(=O)CO3)c1C
25% | Cc1nnc(SCc2cccc([N+](=O)[O-])c2)o1
79µM* | CC(C)c1ccc(C(=O)CSc2ncn[nH]2)cc1
-24% | COc1ccc(CC2(CO)CCN(Cc3cnn(-c4ccccc4)c3)CC2)cc1
-19% | O=C(CCNS(=O)(=O)c1ccc(Cl)cc1)N1CCCCCC1
1.8µM* | CC(C)=CC[C@@H](O)C1=CC(=O)c2c(O)ccc(O)c2C1=O
18% | O=C(Nc1nnc(SCC(=O)N2CCOCC2)s1)c1ccccc1Cl
-13% | CCC(C)C1C(C#N)=C(N)OC2=C1C(=O)CC(C)(C)C2 (configuration not stated)
-8% | CCCCC(=O)Nc1cc2nn(-c3ccc(OCC)cc3)nc2cc1C
-22% | CC(C)N1CCc2c(sc(NC(=O)Cc3ccccc3)c2C#N)C1
-16% | CC(=O)n1cc([C@@H]2C=C(C(=O)N3CCN(C)CC3)O[C@H](OCc3ccc(CO)cc3)C2)c2ccccc21
-19% | c1ccc(Oc2nnc(-c3cccs3)c3ccccc23)cc1
7% | COc1ccc(C)cc1NC(=O)c1ccc2nc(Cc3ccccc3)oc2c1
-5% | CCOc1ccc(-n2nnnc2SCC(=O)NC2CCCC2)cc1
0% | O=C(NC1CCCCC1)C(c1ccncc1)N(Cc1ccc2c(c1)OCO2)C(=O)C(F)(F)F (configuration not stated)
-7% | COCCNCCCCOc1ccc(C)cc1[N+](=O)[O-]
1% | CCOc1ccc(CN2CCN(C3CCSCC3)CC2CCO)cc1 (configuration not stated)
6% | COC(=O)[C@]1(Cc2ccccc2)N[C@H](CN(C)C(=O)c2ccc(C)cc2)[C@@H]2C(=O)N(Cc3ccccc3)C(=O)[C@@H]21
5% | COc1ccccc1Nc1nc(C2(C)CCC(=O)O2)cs1 (configuration not stated)
-6% | COc1cc(-c2cc(C(=O)Nc3ccc(N4CCOCC4)cc3)c3ccccc3n2)cc(OC)c1OC
-20% | CCC(C)(C)C1CCc2[nH]nc(C(=O)NCc3ccc(Cl)cc3)c2C1 (configuration not stated)
1% | C=CCN1CC(c2nc3ccccc3n2Cc2ccccc2)CC1=O (configuration not stated)
-13% | CCOc1ccc(-c2cc3nc(C4CCN(C(=O)OC(C)(C)C)CC4)c(C(=O)Nc4ccc(C(=O)OC)cc4)cn3n2)cc1
4% | Brc1cccc(CN2CCCCCC2)c1
-13% | CC(C)c1nccn1S(=O)(=O)c1cccc([N+](=O)[O-])c1
-5% | COC(=O)c1sccc1NC(=O)CC1C(=O)NCCN1C(=O)c1c(F)cccc1Cl (configuration not stated)
-12% | CCOc1cc(/C=N/NC(=O)CSc2nncn2C)ccc1OC(=O)c1ccc(Cl)cc1
7% | O=C(NCc1ccc(F)cc1)C1CCN(S(=O)(=O)c2ccc3c(c2)OCCCO3)CC1
14% | CCC(C)c1ccccc1N1CC(C(=O)Nc2ccc(S(=O)(=O)N3CCOCC3)cc2)CC1=O (configuration not stated)
-9% | Cc1cc(C)c2c(c1)cc(C)c1nnc(SCC(=O)Nc3ccc(S(=O)(=O)N4CCCCC4)cc3)n12
-7% | O=C(COc1coc(CN2CCN(c3ccccc3)CC2)cc1=O)NC1CCCCC1
-11% | COc1ccc(CC(C)Nc2cccc(SC)c2)cc1 (configuration not stated)
36%[activator] | O=C(Nc1cccc(Cl)c1)Nc1nccs1
5% | COc1ccc2c(c1)OC[C@H]1[C@H]2N2C(=O)c3cc(Br)ccc3NC(=O)[C@@]2(C)[C@H]1c1ccccc1
-7% | O=C(Cc1cccs1)N[C@@H]1c2ccccc2CC[C@@H]1OCc1ccccc1
17% | CSc1ccc(CCCCCCOC(=O)C(C)(C)C)cc1
28% | Cc1nc2ccc(S(=O)(=O)N(C)CC(=O)Nc3ccccc3F)cc2s1
1% | Cc1ccc(S(=O)(=O)NCC(=O)NNC(=O)c2ccc(Br)cc2)cc1C
4% | O=S(=O)(NCc1ccc(F)cc1)c1ccc(Br)cc1Br
-7% | N#Cc1cnc(Oc2ccc(Cl)cc2)nc1N
-30% | CCc1cc(C(=O)O)c(NC(=O)/C=C/c2ccc(OC)c(OC)c2)s1
7%&-6% | CCOc1ccc(CCNC(=O)C2CC(=O)N(CCc3ccc(OC)c(OC)c3)C2)cc1OCC (configuration not stated)
-15% | COc1ccc(N2CCOCC2)c(NC(=O)c2ccc(Br)o2)c1
-12% | COc1ccc(NC(=O)c2oc3ccccc3c2C)c(OC)c1
-5% | c1ccc2nc3c(ccc4ccccc43)cc2c1
? | CC1CN(S(=O)(=O)c2cccc(C(=O)NCc3ccccn3)c2)CC(C)O1 (configuration not stated)
6% | CCN(CC)S(=O)(=O)c1ccc2c(c1)N(CC(=O)Nc1ccc(C)cc1C)C(=O)C1CCCN21 (configuration not stated)
11% | S=C(NCc1cccnc1)c1ccccc1
-4% | CCOC(=O)c1nnn(-c2nonc2N)c1CN(CC)c1ccccc1
22% | CCOc1ccc(/C=C/c2nc(C#N)c(N3CCCCC3)o2)cc1
-9% | O=C(Cn1cccc1C(=O)c1ccccc1)NCc1cccs1
-12% | CCc1ccccc1NC(=O)c1ccc2nc(N3CCOCC3)sc2c1
-1% | CN(C)CCCN1C(=O)C(=O)/C(=C(/O)c2ccncc2)C1c1cccc(Br)c1 (configuration not stated)
-7% | COc1ccc(CC(=O)OCC(=O)Nc2ccc3[nH]c(=O)[nH]c3c2)cc1
-13% | CCOC(=O)C1(CC)NC(c2ccco2)C2C(=O)N(CC)C(=O)C21 (configuration not stated)
-4% | O=C(CSc1ncnc2ccccc12)NCC(=O)c1ccccc1
-9% | Cc1ccc(NC(=O)c2cccc(NC(=O)CC3SC(N4CCCCC4)=NC3=O)c2)nc1 (configuration not stated)
? | CCCOc1ccccc1OCC(=O)N1CCN(S(=O)(=O)c2ccc(Cl)cc2)CC1
13% | CCC(=O)N1CCc2cc(S(=O)(=O)NC(CC(C)C)C(=O)Nc3cc(C)ccc3OC)ccc21 (configuration not stated)

(further entries)
VDR inh | smiles
14%&4% | C=CC(C)(O)CCCC(C)CCCC(C)CCCC(C)C (configuration not stated)
3% | NC(=O)c1ccsc1NC(=O)C1CCCCC1
45µM* | O=C(NC1CCCCC1)Oc1cc2oc(=O)sc2cc1Br
-2% | Cc1ccc(Sc2nc(C)c([N+](=O)[O-])c(C)c2C#N)cc1
? | CCCCn1c(N)c(N(CC(C)C)C(=O)CSc2ccc([N+](=O)[O-])cc2)c(=O)[nH]c1=O
-4% | CCOc1ccc(NC(=O)CN(C)C(=O)c2ccncc2)cc1OCC
-11% | O=C(NCc1cccnc1)c1ccc(Cl)cc1[N+](=O)[O-]
? | COc1cccc(NC(=O)c2ccc(S(=O)(=O)NCc3cccnc3)cc2)c1
-3% | CCN(c1ccccc1)S(=O)(=O)c1cccc(C(=O)NCc2ccncc2)c1
-6% | CC(C)C(C)NC(=O)COn1nnc2ccc(S(=O)(=O)N3CCOCC3)cc21 (configuration not stated)
2% | COc1ccc(/C(C)=N/N=C(N)N)c(O)c1
-14% | Cc1ccc2occ(/C=N/NC(=O)[C@@H](N)Cc3ccccc3)c(=O)c2c1
-4% | Cc1ccc(CS(=O)(=O)CCC(=O)NCCCN2CCCC2)cc1
-4% | COc1ccc(CCNC(=O)CSc2cc(=O)n(C)c3ccccc23)cc1OC
-10% | CCOC(=O)c1ccc(NC(=O)c2cn(CCC#N)nc2-c2ccc3c(c2)OCCO3)cc1
-3% | Cc1ccccc1NC(=S)N1CCCCCC1
1% | O=C(Cn1nc(C(F)(F)F)c2c1CCCC2)NC1CCCC1
-17% | CCCCCCn1c(CN2CCN(CCO)CC2)nc2c1c(=O)n(C)c(=O)n2C
-12% | CCc1ccc(-n2nc3cc(C)c(NC(=O)c4cc(Cl)ccc4OC)cc3n2)cc1
9% | CCOc1cccc(C2c3[nH]c4ccccc4c3CCN2C(=O)CCc2ccccc2)c1 (configuration not stated)
-6% | Cc1cc(C(=O)COC(=O)c2ccc(F)cc2)c(C)n1C
-17% | Cc1ccccc1NC(=O)COC(=O)C1C2CC3OC(=O)C1C3C2 (configuration not stated)
-5% | COC(=O)c1ccc(NC(=O)Cc2ccc(C)cc2)cc1
-15% | O=C(CC1SC(=O)NC1=O)Oc1ccc(/C=N/NC(=O)c2ccccc2O)cc1 (configuration not stated)
-13% | CCn1c(SCC(=O)NCc2ccco2)nc2ccccc2c1=O
-11% | CC1Cc2nc(SCC(=O)NCc3ccccc3)n(Cc3ccccc3)c(=O)c2S1 (configuration not stated)
7% | CCOc1ccccc1NC(=O)C1=C(C)Nc2ncnn2C1c1ccc(C)o1 (configuration not stated)
9% | CN1C(=O)OC(C)(CCc2ccccc2)C1(C)O (configuration not stated)
-2% | C[C@@H]1CCC2[C@](C)(CO)[C@@H](O)CC[C@]2(C)[C@]12CCC(CO)(CCO)O2 (some centres not stated)
-2% | CC(=O)c1cccc(NC(=O)c2ccc3nc(Cc4ccccc4)oc3c2)c1
-5% | COc1cc(NC(=O)c2ccccc2Cl)ccc1NC(=O)c1ccco1
3% | COc1ccc(/C=C/C(=O)NCCCn2ccnc2)cc1
-5% | CCn1c(SCC(=O)NCc2ccco2)nnc1C(C)C
16% | COc1ccc(NC(=O)CN(C)C(C)C(=O)N2CCCCC2)cc1 (configuration not stated)
10% | O=S(=O)(Nc1ccc2ccccc2c1)N1CCCCC1
45µM* | C=CCOc1ccc(C=CC(=O)c2c(O)c(OC)c(OC)c(OC)c2OC)cc1
21% | CCN1CCN(c2ncc3c(n2)CCN(Cc2cccc(F)c2F)C3)CC1
30% | COc1nccnc1NS(=O)(=O)c1ccc(NCc2cc(Br)ccc2O)cc1
9% | CCCOc1ccc(C(=O)c2ccccc2C(=O)O)cc1OCCC
-18% | COc1ccc(CN(C)CC(=O)Nc2ccccc2C(=O)NC2CC2)cc1OC
-1% | Cc1ccc(NC(=O)c2nc[nH]c2C(=O)Nc2ccc(C)cc2)cc1
-8% | Cc1ccc(NC(=O)CN(C)C(=O)c2cccc(S(=O)(=O)NCc3ccco3)c2)cc1
-17% | O=C(NC(=S)NC1CCN(Cc2ccccc2)CC1)c1ccc(F)cc1
0% | O=C(CSc1ncc2c(n1)-c1ccccc1N(Cc1ccccc1)S2(=O)=O)Nc1ccccc1
-5%&-9% | CCCCC(CC)COC(=O)c1ccc(N(C)C)cc1 (configuration not stated)
3% | Cc1cc(C)n(-c2ccc(S(=O)(=O)N3CCOCC3)cc2[N+](=O)[O-])n1
35%[activator] | CCc1noc(C)c1C(=O)NNC(=O)c1ccccc1
-5% | COC(=O)CCC(=O)Nc1ccc(Br)cc1
-8% | CCOc1ccc(S(=O)(=O)Nc2nc3ccccc3nc2Cl)cc1
8% | O=C(Nc1ccccc1C(=O)N1CCN(c2cccc(Cl)c2)CC1)C1=CSCCO1
19% | CC(C)(C)[C@H]1C=C(C(=O)N2CCOCC2)O[C@@H](OCCCCO)C1
20% | O=C(Nc1ccccc1)c1ccc2nsnc2c1
? | CCOc1ccc(NC(c2ccccn2)c2oc(CO)cc(=O)c2O)cc1 (configuration not stated)
-10% | O=C(CCC(=O)N1CCOc2ccc(Cl)cc21)NCCCN1CCN(Cc2ccccc2)CC1
12% | Cc1ccc(-c2nnc(Nc3ccc(O)cc3)c3ccccc23)cc1S(=O)(=O)NCC1CCCO1 (configuration not stated)
-19% | O=C(CNS(=O)(=O)c1ccc2ccccc2c1)OCC(=O)c1ccc(Br)s1

From PubChem
